From PubChem BioAssay
Bfl-1 A1 inh: inhibitors of the anti-apoptotic protein A1, read as caspase activation; MEF A1-2A-BIM cells, Caspase-Glo 3/7 luminescence, 3 h; percent of clofoctol response, vehicle zero; caspase activation, % (test concentration not listed); hit rate 0.066% among 330,000; AID 2462;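 active = over half of replicate activation scores above 10%, or exactly half above 10 with the replicate mean above 10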;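 also: wells of about 30 µL received 50 nL stock; many hits fall short of the cut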
rRNA inh HTS: inhibitors of bacterial rRNA selective over humanized ribosomes | hit rate 1.6% among 350,000 | GFP signal change (wild-type ribosome), % (no concentration beside the values) | E. coli WT GFP vs humanized-ribosome RFP mutants, fluorescence, 24 h; active compounds read low; DMSO median 0, no signal -100;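 active = significant combined selectivity score with lowered wild-type GFP, culture density cut under 30%, mutant RFP and density less affected; inactive = any of these conditions unmet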; also: one replicate is shown; some compounds called inactive have numbers as strong as hits
Beta2AR agonist: activates human beta-2 adrenergic receptor causing internalization; Am2.2-beta2AR cells, FAP receptor internalization, flow cytometry; reference of the scale not given here; hit rate 0.43% among 340,000; P07550; response, % (test concentration not listed);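 active = response above a set limit, near 3 SD of response in nonfluorescent compounds, cut at about 42% in these data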;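 also: stock transfer was 100 nL into about 11 µL; a reference agonist was the positive control; negative values mostly stem from fluorescent compounds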
Target sequence (P07550 whole entry, looked up): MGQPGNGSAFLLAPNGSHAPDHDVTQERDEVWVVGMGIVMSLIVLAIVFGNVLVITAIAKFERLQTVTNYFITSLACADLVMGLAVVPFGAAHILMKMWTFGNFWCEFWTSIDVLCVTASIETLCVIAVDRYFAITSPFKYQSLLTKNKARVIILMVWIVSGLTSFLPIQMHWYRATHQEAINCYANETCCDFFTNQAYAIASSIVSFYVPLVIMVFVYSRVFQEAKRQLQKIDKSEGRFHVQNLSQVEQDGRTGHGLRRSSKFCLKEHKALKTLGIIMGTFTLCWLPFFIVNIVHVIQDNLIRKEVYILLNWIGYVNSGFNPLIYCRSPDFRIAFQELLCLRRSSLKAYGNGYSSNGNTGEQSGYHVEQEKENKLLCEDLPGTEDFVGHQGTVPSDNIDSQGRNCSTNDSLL
LANA-H2B inh: blocks KSHV LANA binding to histone H2A/H2B; cell-free LANA-H2A/H2B peptide, fluorescence polarization; inhibition, % (concentration not given with the values); AID 2629; Q9QR71; hit rate 0.6% among 320,000; in the data active = inhibition mostly above about 10%, no sharp cut-off; inactive = mostly below about 6.7%;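 also: stock transfer was 7.5 nL into about 10 µL; 0% = median of vehicle wells and 100% = median of positive control wells; one replicate is shown; the record names a cut of 25% in any replicate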
rRNA inh HTS OD600: recorded beside rRNA inh HTS, whose call it bears; OD600 change, %; measured here: OD600 growth;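 optical density of the mix in the first replicate; 0 = DMSO median and -100 = no signal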
rRNA inh HTS RFP: second read-out of rRNA inh HTS, no call of its own (marks repeat the call); RFP signal change, %; measured here: RFP humanized mutant strains;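 first replicate; 0 = DMSO median and -100 = no signal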
Active calls of the source: *; nt = no result given; & = joins results of further samples. Some of the compounds tested (hit frequency here may not be typical).

Start of the listing, in advance, 4 compounds:
smiles | Bfl-1 A1 inh | rRNA inh HTS | rRNA inh HTS OD600 | rRNA inh HTS RFP | Beta2AR agonist | LANA-H2B inh
Cn1cccc1Cc1nnc(SCC(=O)Nc2nc3ccccc3s2)n1CCc1ccccc1 | 0.0 | nt | nt | nt | -8 | -1.2
Cc1ccc(N(CC(=O)N2CCN(C3CCCCC3)CC2)S(=O)(=O)c2cccnc2)cc1 | -0.8 | nt | nt | nt | -7 | 8.7
FC(F)(F)c1nnc2ccc(N3CCCCCC3)nn12 | 0.3 | nt | nt | nt | -3 | -1.7
CCOC(=O)CSc1nnc(CNC(=O)c2cc(OCC)c(OCC)c(OCC)c2)n1C | -0.4 | nt | nt | nt | 2 | 6.0

The whole of this part, previewed entries included:
smiles | Bfl-1 A1 inh | rRNA inh HTS | rRNA inh HTS OD600 | rRNA inh HTS RFP | Beta2AR agonist | LANA-H2B inh
Cn1cccc1Cc1nnc(SCC(=O)Nc2nc3ccccc3s2)n1CCc1ccccc1 | 0.0 | nt | nt | nt | -8 | -1.2
Cc1ccc(N(CC(=O)N2CCN(C3CCCCC3)CC2)S(=O)(=O)c2cccnc2)cc1 | -0.8 | nt | nt | nt | -7 | 8.7
FC(F)(F)c1nnc2ccc(N3CCCCCC3)nn12 | 0.3 | nt | nt | nt | -3 | -1.7
CCOC(=O)CSc1nnc(CNC(=O)c2cc(OCC)c(OCC)c(OCC)c2)n1C | -0.4 | nt | nt | nt | 2 | 6.0
Cc1nc2ccc3nc(NC(=O)c4ccc(S(=O)(=O)N5CCOCC5)cc4)sc3c2s1 | 0.1 | nt | nt | nt | 7 | -1.1
COc1ccccc1N1CCN(C(=O)C(NS(=O)(=O)c2cccs2)c2ccccc2)CC1 (stereo unspecified) | 0.4 | nt | nt | nt | 13 | 1.5
COc1ccc(NC(=O)c2cc3n(n2)C(C(F)(F)F)CC(c2ccc4c(c2)OCO4)N3)cc1OC (stereo unspecified) | -0.3 | nt | nt | nt | 5 | -2.5
CCCCCn1c(SCC2CCCO2)nc2cc(C(=O)N3CCC(C(N)=O)CC3)ccc2c1=O (stereo unspecified) | 0.2 | nt | nt | nt | -1 | 3.2
Cc1ccc(-c2nn3c(C)nnc3s2)cc1NC(=O)c1ccc(-c2ccc(Cl)cc2Cl)o1 | 0.3 | nt | nt | nt | 10 | 3.7
COc1cc(-c2cnc3c(NC=O)cc(-c4cccc(C(F)(F)F)c4)cn23)cc(OC)c1OC | nt | -2 | 0 | 6.4 | nt | nt
CCOC(=O)[C@]12CCC=C1N(CCC1=CCCCC1)C(=O)[C@H](CC(=O)NCc1cccc(C(F)(F)F)c1)C2 | nt | -7 | 1 | 7.9 | nt | nt
C[C@H]1CN([C@@H](C)CO)C(=O)c2cc(N(C)C)ccc2O[C@H]1CN(C)Cc1ccc(Oc2ccccc2)cc1 | nt | -5 | -19 | 3.9 | nt | nt
COc1ccccc1C(=O)Nc1ccc2c(c1)C(=O)N(C)C[C@@H](OC)[C@H](C)CN(C)[C@@H](C)CO2 | nt | -3 | 2 | 1.5 | nt | nt
C[C@H](CO)N1C[C@H](C)[C@@H](CN(C)C(=O)Cc2cccnc2)Oc2ncc(-c3cncnc3)cc2C1=O | nt | 0 | 4 | -4.8 | nt | nt
C[C@@H]1CN([C@@H](C)CO)C(=O)Cc2cc(NC(=O)Cc3cn(C)c4ccccc34)ccc2O[C@H]1CN(C)S(=O)(=O)c1ccc(Cl)cc1 | nt | -8 | -1 | 0.0 | nt | nt
O=S(=O)(N[C@H]1CC[C@H](CCn2cc(-c3cccnc3)nn2)O[C@@H]1CO)c1ccccc1 | nt | 1 | 3 | -1.5 | nt | nt
C[C@H]1CN([C@@H](C)CO)C(=O)c2cc(NC(=O)CCCN(C)C)ccc2O[C@@H]1CN(C)C(=O)Nc1ccccc1 | nt | -1 | 8 | -0.5 | nt | nt
CC(C)COC(=O)N1CCCCC1c1cc(C(=O)NCc2cccnc2)no1 (stereo unspecified) | nt | -5 | -10 | -1.6 | nt | nt
COc1ccc(S(=O)(=O)N2CC[C@H]3[C@@H](CO)N(C)c4ccc(C#Cc5ccccc5OC)cc4[C@H]32)cc1 | nt | -4 | 13 | 1.8 | nt | nt
CCNC(=O)[C@@H]1[C@@H](CO)[C@@H]2Cn3c(ccc(-c4ccccc4OC)c3=O)[C@@H]2N1S(C)(=O)=O | nt | 1 | 16 | -2.6 | nt | nt
C[C@H]1CN([C@@H](C)CO)C(=O)c2cc(NC(=O)CCCN(C)C)ccc2O[C@H]1CN(C)Cc1ccc(C(=O)O)cc1 | nt | -1 | -9 | -2.0 | nt | nt
COc1ccc(NC(=O)N2CCCCN3[C@H](C2)[C@H](c2ccc(C4=CCCCC4)cc2)[C@@H]3CO)cc1 | nt | -7 | -38 | 26 | nt | nt
CO[C@H](CN(C)C(=O)c1ccccc1F)[C@H](C)CN([C@@H](C)CO)S(=O)(=O)c1ccc(Cl)cc1 | nt | -1 | -6 | -2.9 | nt | nt
O=S(=O)(c1cccs1)N1CCCCN2[C@@H](CO)[C@@H](c3ccc(Br)cc3)[C@@H]2C1 | nt | -8 | -52 | -2.8 | nt | nt
O=C(O)c1ccc(S(=O)(=O)NN=Cc2c[nH]c3ccccc23)cc1 | nt | 7 | 17 | -0.2 | nt | nt
O=C(C[C@H]1C[C@@H]2c3cc(NC(=O)Nc4ccccc4)ccc3O[C@@H]2[C@H](CO)O1)NCc1cccc(F)c1 | nt | -6 | -9 | 0.4 | nt | nt
CCc1nc2ccc(C(=O)Nc3ccc(OC)c(OC)c3)cn2c1N(CC)Cc1cccc(Br)c1 | nt | 4 | -16 | -3.5 | nt | nt
CC(C)NC(=O)N(C)C[C@H]1Oc2cc(C#C[C@@H](C)O)ccc2S(=O)(=O)N([C@H](C)CO)C[C@@H]1C | nt | 3 | 7 | -2.9 | nt | nt
O=C(Nc1ccc(F)c(Cl)c1)c1cc(C2CCCCN2C(=O)c2ccccc2)on1 (stereo unspecified) | nt | -10 | -15 | -1.6 | nt | nt
CCCC(=O)N1C[C@H]2[C@@H](c3ccccc31)[C@H](CO)N2C(=O)CC1CC1 | nt | -1 | 7 | -1.5 | nt | nt
CC1(Cc2cccc(C(F)(F)F)c2)C(=O)Nc2c(Cl)cccc21 (stereo unspecified) | nt | -46 | -65 | -2.5 | nt | nt
C[C@@H]1CN([C@H](C)CO)S(=O)(=O)c2ccc(-c3ccc(C(=O)N(C)C)cc3)cc2O[C@H]1CN(C)C(=O)C1CCOCC1 | nt | 1 | 15 | -3.6 | nt | nt
C[C@@H]1CN([C@H](C)CO)C(=O)c2cc(NC(=O)Nc3ccccc3)ccc2O[C@@H](C)CCCCO[C@@H]1CN(C)C | nt | 5 | 4 | -1.4 | nt | nt
COc1ccc(CC(N)c2csc(NC(=O)CCc3ccccc3)n2)cc1 (stereo unspecified) | nt | -7 | -44 | 11 | nt | nt
COc1ccc(-c2ccc3n(c2=O)C[C@@H]2[C@@H](CO)[C@H](C(=O)N4CCN(C)CC4)N[C@H]32)cc1 | nt | 2 | 3 | -0.3 | nt | nt
COc1cccc(NC(=O)N(C)C[C@H]2Oc3ncc(/C=C/c4ccccc4)cc3C(=O)N([C@@H](C)CO)C[C@@H]2C)c1 | nt | -4 | -7 | 4.7 | nt | nt

Looked up above:
rRNA inh HTS RFP result of `CC1(Cc2cccc(C(F)(F)F)c2)C(=O)Nc2c(Cl)cccc21` (stereo unspecified) : -2.5
rRNA inh HTS RFP result of `O=C(O)c1ccc(S(=O)(=O)NN=Cc2c[nH]c3ccccc23)cc1` : -0.2

Later entries.
smiles | Bfl-1 A1 inh | rRNA inh HTS | rRNA inh HTS OD600 | rRNA inh HTS RFP | Beta2AR agonist | LANA-H2B inh
C[C@@H]1CN([C@@H](C)CO)C(=O)c2cc(NS(=O)(=O)c3ccccc3)ccc2O[C@H]1CN(C)CC1CCCCC1 | nt | -4 | 0 | 0.1 | nt | nt
C[C@H](CO)N1C[C@H](C)[C@@H](CN(C)C(=O)c2cccc(F)c2)Oc2cc(C#CC3CCCC3)ccc2S1(=O)=O | nt | 2 | 4 | 3.8 | nt | nt
Cc1ccc(S(=O)(=O)N2C[C@@H](O)COC[C@@H]3O[C@H](CC(=O)NCCCN(C)C)CC[C@H]32)cc1 | nt | -1 | -5 | -3.6 | nt | nt
CC(C)C[C@H]1CN([C@@H](Cc2ccccc2)CN2CCCC2CN2C(=S)NC[C@@H]2Cc2ccccc2)C(=S)N1CC1CCCCC1 (stereo partly specified) | nt | 35 | 34 | 13 | nt | nt
CCOC1=C2[C@H](c3ccccc3)N(S(=O)(=O)c3ccc(C)cc3)C[C@H]2n2c(=O)n(-c3ccccc3)c(=O)n2C1 | nt | 2 | 16 | 0.5 | nt | nt
N#C[C@H]1[C@@H](c2ccccc2-c2cccc(F)c2)[C@H](CO)N1S(=O)(=O)c1cccc(F)c1 | nt | -35 | -67 | 0.0 | nt | nt
O=C(Nc1ccc(Cl)cn1)c1cccc(S(=O)(=O)N2CCCCCC2)c1 | nt | 5 | -35 | -0.8 | nt | nt
Cc1cc(=O)c(C(=O)Nc2cccc(C(=O)NC3CC3)c2)nn1-c1ccccc1 | nt | 4 | 11 | -0.4 | nt | nt
O=S(=O)(N[C@@H]1CC[C@H](CCn2cc(-c3cccnc3)nn2)O[C@@H]1CO)c1ccc(Cl)cc1 | nt | -5 | -7 | -0.9 | nt | nt
Cc1noc(C)c1NC(=O)N(C)C[C@@H]1Oc2ccc(N(C)C)cc2C(=O)N([C@@H](C)CO)C[C@H]1C | nt | 1 | 8 | -0.7 | nt | nt
CCC(=O)N(C)C[C@@H]1Oc2cc(C#CCC(C)C)ccc2S(=O)(=O)N([C@@H](C)CO)C[C@H]1C | nt | -2 | -14 | 4.0 | nt | nt
CCCC(=O)Nc1ccc2c(c1)C(=O)N(C)[C@@H]1CC[C@@H](CC(=O)NCCOC)O[C@H]1CO2 | nt | -2 | -3 | -1.0 | nt | nt
C[C@H]1CN([C@@H](C)CO)C(=O)c2cc(NC(=O)Cc3cn(C)c4ccccc34)ccc2O[C@@H]1CN(C)C(=O)Nc1cccc2ccccc12 | nt | 2 | 2 | 2.7 | nt | nt
CO[C@@H]1CN(C)C(=O)c2ccc(NC(=O)NC3CCCCC3)cc2OC[C@@H](C)N(C)C[C@H]1C | nt | 2 | 4 | -1.3 | nt | nt
C[C@@H]1CCCCO[C@H](CN(C)CC2CCCCC2)[C@@H](C)CN([C@H](C)CO)C(=O)c2cc(NS(=O)(=O)c3ccc(Cl)cc3)ccc2O1 | nt | 4 | -7 | -1.0 | nt | nt
C[C@H](CO)N1C[C@H](C)[C@H](CN(C)C(=O)Cc2cccnc2)Oc2ncc(C#Cc3ccccc3F)cc2C1=O | nt | 3 | 8 | 3.7 | nt | nt
CNC[C@H]1Oc2ccc(NC(=O)Nc3c(C)noc3C)cc2C(=O)N([C@@H](C)CO)C[C@@H]1C | nt | -1 | 4 | -3.1 | nt | nt
Cc1noc(C)c1S(=O)(=O)N(C)C[C@H]1Oc2c(NC(=O)C3CC3)cccc2C(=O)N([C@H](C)CO)C[C@H]1C | nt | -2 | -1 | 0.8 | nt | nt
Cc1ccc(S(=O)(=O)N(C)C[C@@H]2Oc3c(NC(=O)c4cc(C)nn4C)cccc3C(=O)N([C@@H](C)CO)C[C@@H]2C)cc1 | nt | -2 | 3 | 0.6 | nt | nt
O=C(CCN1CCCCC1)N[C@H]1C=C[C@@H](CC(=O)N2CCC(Cc3ccccc3)CC2)O[C@@H]1CO | nt | -2 | -3 | 1.9 | nt | nt
Cc1ccccc1S(=O)(=O)NCC[C@H]1CC[C@@H](NS(=O)(=O)c2ccccc2C)[C@@H](CO)O1 | nt | -4 | -4 | 0.4 | nt | nt
C[C@@H]1CN([C@@H](C)CO)C(=O)Cc2cc(NC(=O)C3CCCCC3)ccc2O[C@@H]1CN(C)C(=O)Nc1ccc2c(c1)OCO2 | nt | -2 | -6 | -2.8 | nt | nt
C[C@H](CO)N1C[C@H](C)[C@@H](CN(C)C(=O)c2ccc(N3CCN(C)CC3)cc2)OCc2cn(nn2)CCCC1=O | nt | 4&9 | 4&9 | 1.1&-0.8 | nt | nt
